Cruzain Triton – blocks cruzain activity in presence of Triton detergent; P25779; purified cruzain, Z-FR-AMC fluorescence, 0.01% Triton; Potency, µM, for inactives: max response, negative = inhibition, hits mostly inhibitors; 0.43% of 200,000 active; AID 1478;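 also: plate controls were neutral wells for no effect and buffer without enzyme for full effect; nearly all actives have a fitted effect of over 40% in size; top concentration of the series not given in the record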
Target sequence (P25779 123-467 limits assumed): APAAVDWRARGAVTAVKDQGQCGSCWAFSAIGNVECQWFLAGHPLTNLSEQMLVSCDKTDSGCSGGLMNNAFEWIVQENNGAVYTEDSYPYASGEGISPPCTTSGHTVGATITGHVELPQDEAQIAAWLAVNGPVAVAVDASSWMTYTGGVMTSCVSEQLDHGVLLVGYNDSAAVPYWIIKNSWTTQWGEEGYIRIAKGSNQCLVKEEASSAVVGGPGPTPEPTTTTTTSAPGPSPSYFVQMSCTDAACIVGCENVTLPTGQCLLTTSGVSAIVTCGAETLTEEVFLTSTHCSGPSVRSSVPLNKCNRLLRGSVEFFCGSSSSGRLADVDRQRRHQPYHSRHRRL
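Detergent-containing run (0.01% Triton X-100) in acetate buffer pH 5.5 with 5 mM DTT: enzyme at 1.5 nM final, 15 min compound preincubation at room temperature, then 2 uM Z-FR-AMC substrate. Activity taken as 60 s fluorescence increase at 360/450 nm.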
Marburg entry inh – blocks Marburg virus binding to or entry into cells; AID 540276; 1.8% of 300,000 active; Potency, µM (doses to about 37.8 µM), for the others: at the highest dose activity change, negative = inhibition, hits mostly inhibitors; Marburg virus pseudotyped entry inhibition, cell reporter; control for the full effect not named in the record; about a third of the inactives were read at about 46 µM; active = well fitted inhibition curve with a large enough effect; inconclusive = small, poorly fitted or top-dose-only effect, or effect the other way; inactive = flat fitted curve, though single readings scatter; tested in HEK293 cells; about a fifth of its hits are not listed in these tables; also: % is scaled to controls: 0 for no effect and ±100 for the full control effect; luciferase read-out
RE007 growth inh – less growth of the S. pombe RE007 Vpr strain; S. pombe RE007 Vpr strain, BacTiter-Glo ATP luminescence, 24 h; control for the full effect not named in the record; 0.21% of 360,000 active; Potency, µM (series often up to 92.2 µM), inactives show at the top dose activity change, negative = less growth; AID 651644; active = well fitted falling curve with a large enough effect; inconclusive = small, poorly fitted or top-dose-only effect; inactive = no such curve, though single readings can be large or run the other way;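 also: % is scaled to controls: 0 for no effect and ±100 for the full control effect; nearly all actives have a fitted effect of over 50% in size; the assay follows cell death caused by Vpr and the record does not say whether a fall means rescue or toxicity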
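Fission yeast RE007 carrying one integrated HIV-1 vpr copy, seeded at OD 0.01 in PMG+AL medium with 23 nL pinned compound. Grown 24 h at 30 degrees; viability read by BacTiter-Glo luminescence after 5 min.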
SARS PLP yeast – inhibitors of SARS-CoV papain-like protease in yeast; S. cerevisiae expressing SARS-CoV PLpro, growth rescue; control for the full effect not named in the record; AID 485353; Potency, µM (series often up to 32.9 µM), for inactives: at the top dose activity, positive = growth rescue; 0.19% of 330,000 active; active means well fitted rising curve with a large enough effect; inconclusive means small, poorly fitted or top-dose-only effect; inactive means no such curve, though single readings can be large or run the other way; also: 0% is about no effect; nearly all actives have a fitted effect of over 55% in size; growth read by luminescence after 48 h
Cruzain noTriton – blocks cruzain activity in detergent-free assay. purified cruzain, Z-FR-AMC fluorescence, no detergent. AID 1476. 2.3% of 200,000 active. Potency, µM, for inactives: max response, negative = inhibition, hits mostly inhibitors;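 also: plate controls were enzyme without inhibitor for no effect and buffer without enzyme for full effect; nearly all actives have a fitted effect of over 40% in size; top concentration of the series not given in the record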
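Detergent-free condition (0.00005% Triton X-100) in acetate buffer pH 5.5 with DTT. 1.5 nM enzyme and compound were pre-mixed 15 min, then 2 uM Z-FR-AMC substrate added; reaction progress from fluorescence change between first and third reads (60 s).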
Lassa entry inh – Lassa virus entry inhibition; 1.2% of 300,000 active; Potency, µM (titrated, usually from 37.9 µM), for inactives: top-dose activity change, negative = inhibition, hits mostly inhibitors; AID 540256; Lassa virus pseudotype entry inhibition, cell reporter; control for the full effect not named in the record; active means well fitted inhibition curve with a large enough effect; inconclusive means small, poorly fitted or top-dose-only effect, or effect the other way; inactive means flat fitted curve, though single readings scatter; tested in HEK293 cells; also: % is scaled to controls: 0 for no effect and ±100 for the full control effect; nearly all actives have a fitted effect of over 50% in size; luciferase read-out
NS1 inh – inhibitors of influenza NS1 protein function; S. cerevisiae slowed by influenza A NS1, growth recovery by OD600; Potency, µM (highest dose often 46.1 µM), without a hit: at the highest dose activity, positive = more growth; AID 2326; 0.4% of 270,000 active; active means well fitted rising curve with a large enough effect; inconclusive means small, poorly fitted or top-dose-only effect; inactive means no such curve, though single readings can be large or run the other way; also: nearly all actives have a fitted effect of over 50% in size
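A cell-based growth assay was used: compounds that relieve NS1-induced slow growth of budding yeast raise OD600. Assay medium was yeast nitrogen base with ammonium sulphate and -URA supplement, pH 6.0, with 2% galactose.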
StopGo reporter – lowers the luciferase signal of an FMDV 2A StopGo reporter; 1.2% of 410,000 active; Potency, µM (doses to about 57.9 µM), for the others: top-dose signal change, negative = less light; human cells with a luciferase reporter of 2A StopGo recoding; control for the full effect not named in the record; active = well fitted falling curve with a large enough effect; inconclusive = small, poorly fitted or top-dose-only effect; inactive = no such curve, though single readings can be large or run the other way; tested in HEK293T cells; also: % is scaled to controls: 0 for no effect and ±100 for the full control effect; nearly all actives have a fitted effect of over 45% in size; luciferase light after 4 h
* hit, by the source's call; ? = inconclusive; · = no result given; & = joins results of further samples; [ ] = dose if it differs, or a comment. Unless noted, calls follow the shape of the dose curve; as a rule, active = well fitted curve in the direction sought with a large enough effect; inconclusive = small, poorly fitted or top-dose-only effect, or another doubt; inactive = no such curve, though single readings can be large; an effect the other way counts as inactive or inconclusive. Potency is read from the fitted curve at half-maximal effect. No enrichment for hits; about 4.8% have a hit in one of these screens.

SMILES	Cruzain Triton	Marburg entry inh	RE007 growth inh	SARS PLP yeast	Cruzain noTriton	Lassa entry inh	NS1 inh	StopGo reporter
Cc1ccc(NC(=O)C(SCC(=O)O)c2ccccc2)cc1C (stereo not given)	-1.6%	-3%	3%	4%	10%	7%	12%	3%
FC(F)(F)c1cccc(NC(=S)NCc2ccccc2)c1	-8.0%	0%	9%	4%	-5%	?	-116%	1%
COc1cccc(NC(=O)CSc2nnc(CNC(=O)c3ccco3)n2C)c1	·	-23%[46.1 µM]	6%	-2%	·	0%	·	-13%
O=C(c1ccccc1Br)N1N=C(c2ccccc2)CC1c1ccccc1F (stereo not given)	·	·	2%	-6%	·	·	-44%	-19%
CC1CCCN(C(=O)CSc2nnc(-c3c[nH]c4ccccc34)o2)C1 (stereo not given)	-0.7%	6%	10%	-6%	8%	?	-15%	·
COc1ccc(/C=C2/N=C(SC)NC2=O)cc1OC	·	9%	3%	-1%	·	?	-5%	27%
Cc1ccc(NC(=O)COc2cccnc2[N+](=O)[O-])cc1S(=O)(=O)N1CCOCC1	·	-2%[46.1 µM]	19%	-2%	·	2%	·	3%
COC(=O)C1=C(C)N(Cc2ccccc2)C(=S)N[C@H]1c1cccc(F)c1	·	·	7%	-14%&-6%	·	·	-66%&-49%	-12%
O=C(NCCc1ccccc1)c1cc(Nc2ccccc2)nc2ccccc12	-18%	·	·	·	-2%	-19%[46.1 µM]	·	-21%
COc1ccc(-c2cc(NC(=O)c3cncn3-c3ccccc3)ccc2OC)cc1	·	?	22%	4%	·	0%	6%	?
C=CCn1c(NCc2ccc3c(c2)OCO3)nc2ccccc21	-2.7%	21%	-16%	0%	5%	15%	-8%	-4%
COc1ccc(CCNC(=O)CCCCn2c(=O)c3ccccc3n(CC(=O)Nc3c(C)cccc3C)c2=O)cc1OC	6.9%	-1%[46.1 µM]	·	·	-4%	4%[46.1 µM]	·	-8%
CN(C)c1ccc(/C=N/N2CCN(Cc3ccccc3Cl)CC2)cc1	·	·	-5%	1%	·	·	-2%	18%
Cc1nn2c(N3CCOCC3)cc(C(C)C)nc2c1-c1ccccc1	·	·	3%	-2%	·	·	-3%	-27%
CCOc1ccc(N2C(=O)CC(SC(=NC)Nc3cccc(OC)c3)C2=O)cc1 (stereo not given)	·	-4%[46.1 µM]	-4%	0%	·	-1%[46.1 µM]	-1%	21%
Nc1nnc(SCC(=O)Nc2ccccc2)s1	-1.8%	5%	10%	0%	-2%	24%	-1%	23%&30%
COc1ccc(S(=O)(=O)N2CCOCC2)cc1NC(=O)COc1cccnc1[N+](=O)[O-]	·	·	1%	2%	·	·	-5%	1%
CC1CCCN(CC(=O)NNC(=O)COc2ccc(Br)cc2)C1 (stereo not given)	·	?	5%	-1%	·	?	·	-1%
CCOC(=O)c1c(N)sc2c1C1CCN2CC1	-1.7%	-2%	5%	-5%	0%	11%	?	-16%
CC1CC(=O)N(Cc2ccccc2)c2ccccc2N1C=O (stereo not given)	6.2%	-2%	10%	5%	-4%	0%	-2%	8%
CCc1ccc(-c2cn3nc(-c4ccccc4)cnc3n2)cc1	·	·	-3%	-2%	·	·	-1%	22%
Cc1cc(C)c(OCC(=O)OCC(=O)N2CCN(C(=O)c3ccco3)CC2)c(C)c1	·	?	-18%	0%	·	0%	·	-23%
O=C(N/N=C/c1cccc(Oc2ccc([N+](=O)[O-])cc2[N+](=O)[O-])c1)c1cncc(Br)c1	-2.2%	-17%	-2%	4%	25µM*	?	12%	·
CCOC(=O)N1CCN(Cc2nc3c(c(=O)n(C)c(=O)n3C)n2Cc2cccc3ccccc23)CC1	-4.5%	-13%	17%	0%	?	-21%	-64%	-24%
COc1ccc(-c2nc(CS(=O)CC(=O)NC3CCCCC3)c(C)o2)cc1OC (stereo not given)	·	-15%[46.1 µM]	-1%	-2%	·	-9%[46.1 µM]	4%	5%
COc1ccc(C(=O)NCc2nnc(SCC(=O)Nc3ccccc3)n2-c2ccccc2)cc1	1.2%	-2%[46.1 µM]	·	·	13%	?	·	12%
CCOc1ccccc1OCc1nn2c(COc3ccccc3)nnc2s1	-1.6%	-23%	-23%	-2%	-10%	-2%	-100%	-10%
Cc1cc2nccc(-c3ccc(Cl)cc3Cl)n2n1	·	·	-21%	0%	·	·	-1%	31%[activator]
CCOC(=O)c1ccc(N2C(=O)c3n[nH]c(-c4ccco4)c3C2c2cccc([N+](=O)[O-])c2)cc1 (stereo not given)	-4.5%	5µM*	0%	4%	?	?	?	35µM*
CCCCCC(=O)Nc1c(-c2cccs2)c(=O)c2ccccc2n1C	-1.2%	-16%	10%	4%	1%	7%	1%	12%
S=C(Nc1cc(Cl)ccc1Cl)Nn1cnnc1	·	0%[46.1 µM]	2%	0%	·	4%	-101%	-13%
COc1ccc(C(=O)Oc2cccnc2)cc1OC	4.2%	17%	44%	-7%	-10%	1%	10%	-2%
O=C(Nc1ccccc1-c1nc2ccccc2[nH]1)c1sc2ccccc2c1Cl	-2.4%	?	·	-16%	?	-1%	5%	·
CC(O)C(=O)N/N=C/c1cccc(Cl)c1Cl (stereo not given)	-1.7%	20%	12%	-2%	3%	13%	-4%	36%[activator]
COc1ccc(N(CC(=O)NCCC(C)C)C(=O)c2snc(C(=O)NC3CCCCC3)c2N)c(OC)c1	·	?	-18%	26%	·	?	13µM*	-1%
Cc1cc(-c2[nH]nc3c2C(c2ccsc2)C(C#N)=C(N)O3)c(C)s1 (stereo not given)	-17%	?	30%	-2%	-19%	-14%	-34%	-22%

Quoted from above, 2 compounds:
SMILES	Cruzain Triton	Marburg entry inh	RE007 growth inh	SARS PLP yeast	Cruzain noTriton	Lassa entry inh	NS1 inh	StopGo reporter
COc1ccc(C(=O)NCc2nnc(SCC(=O)Nc3ccccc3)n2-c2ccccc2)cc1	1.2%	-2%[46.1 µM]	·	·	13%	?	·	12%
CCOc1ccccc1OCc1nn2c(COc3ccccc3)nnc2s1	-1.6%	-23%	-23%	-2%	-10%	-2%	-100%	-10%

Going on with the list.
SMILES	Cruzain Triton	Marburg entry inh	RE007 growth inh	SARS PLP yeast	Cruzain noTriton	Lassa entry inh	NS1 inh	StopGo reporter
O=C(NNC1=NCCC1)C1CC1	·	-18%[14.2 µM]	2%	1%	·	-4%	·	3%
CCCCn1c(NS(=O)(=O)c2ccccc2)c(S(=O)(=O)c2ccc(C)cc2)c2nc3ccccc3nc21	-5.9%	-2%	-3%	-5%	-10%	-6%	7%	?
Cc1ccc(S(=O)(=O)/C(C#N)=C/c2c(N3CCC(C(N)=O)CC3)nc3ccccn3c2=O)cc1	-0.3%	-24%	10%	-5%	?	-2%	19%	0%
CN(C)C(=O)c1ccc(NC(=O)c2cccc(S(=O)(=O)N3CCCc4ccccc43)c2)cc1	·	?	9%	1%	·	?	·	-28%
Cc1nc2c3cc(Cl)ccc3n(CCN3CCOCC3)c2s1	·	?	-3%	-5%	·	-17%	-4%	-16%
Nc1cc(C(=O)O)c(N)c2c1C(=O)c1ccccc1C2=O	·	·	?	-6%	·	·	-34%	?
CC1(C)CC(=O)C(C(=O)Cc2ccccc2[N+](=O)[O-])C(=O)C1	-0.6%	13%	·	-29%	-4%	12%	-43%	-16%
O=C(N/N=C/c1ccccn1)c1ccccc1	-1.4%	?	14%	-6%	-10%	?	-11%	-23%
O=C(Nc1cc(Cl)cc(Cl)c1)c1cnn2cccnc12	-1.1%	2%	0%	5%	6%	14%	1%	10%
COc1ccc(CC(=O)NC2CCN(Cc3nnnn3C(C)(C)C)CC2)cc1OC	2.4%	-7%	11%	1%	0%	3%	-8%	-9%
Cc1cn2c(N)c(/C=C3\C=Nc4ccccc43)c(=O)nc2s1	·	15%[46.1 µM]	6%	-2%	·	3%	7%	22%
COC(=O)c1ccc[n+](CC(=O)c2ccc(Br)cc2)c1	-0.2%	?	-8%	-19%	0%	?	10%	2%
COc1ccc(C(=O)NCCc2c[nH]c3ccccc23)cc1S(=O)(=O)N1CCOCC1	-3.7%	0%&1%	-18%	5%	-17%	-1%	-5%	-13%
CCOc1ccc(NC(=O)CSc2nnc(C34CC5CC(CC(C5)C3)C4)n2C)cc1	-0.2%	2%	-16%[3.69 µM]	14%	4%	?	-8%	-21%
NC(=O)c1ccccc1OCC(=O)Nc1ccc2c(c1)OCCO2	·	?	0%	3%	·	-30%[46.1 µM]	·	26%
O=C(NCc1cccnc1)c1cc(Sc2ccc(F)cc2F)nc2ccccc12	-11%	11µM*	-11%	5%	-1%	?	-2%	?
Cc1nc(SCc2cccc(Cl)c2)nc2c1CCCC2	-5.1%	6%[46.1 µM]	·	·	-2%	1%[46.1 µM]	·	8%
C=CCC1(O)CC(c2ccco2)NC(c2ccco2)C1CCC (stereo not given)	3.3%	?	4%	-1%	-2%	5%	-2%	-6%
CC1CCc2c(sc3ncn(Cc4ccc(C(=O)O)cc4)c(=O)c23)C1 (stereo not given)	·	4%[46.1 µM]	-13%	2%	·	-1%[46.1 µM]	1%	33%[activator]
COc1ccc(C(=O)CCC(=O)NCCc2ccccc2F)cc1	·	-1%	-9%	3%	·	5%	-3%	-4%
Cc1ccc(C(=O)N=c2sccn2C)o1	·	12%[46.1 µM]	-13%	0%	·	4%[46.1 µM]	-3%	19%
O=C(Nc1ccccc1)c1cc2c(-c3ccccc3)nn(-c3ccccc3)c2s1	-1.2%	?	·	·	?	-3%[46.1 µM]	·	-14%
CCOc1ccccc1NC(=O)Nc1c(C)n(-c2ccccc2)c(=O)n1C	5.8%	-20%	0%	3%	-5%	-7%	3%	-10%
COc1ccc(C(c2nnnn2Cc2ccc(F)cc2)N2CCN(c3ccccc3)CC2)cc1 (stereo not given)	-1.3%	?	15%	-8%	5%	?	-1%	-6%
NC(=O)CC(NC(=O)Cc1cccc2ccccc12)c1ccc(NCCc2ccccc2F)c([N+](=O)[O-])c1 (stereo not given)	·	·	-14%	-1%	·	·	-1%	-7%
CCCC(=O)NC(C)c1nc2ccccc2n1CC (stereo not given)	-0.6%	·	4%	6%	3%	·	-23%	-8%
CCC(C)(C)NC(=O)C(c1ccccn1)N(C(=O)c1csnn1)C1CCCCC1 (stereo not given)	·	?	29%	0%	·	-29%	0%	-20%

From PubChem
